# BJeLR lethal: BJeLR cell viability loss; BJeLR (HRASV12) viability, CellTiter-Glo ATP luminescence, 48 h; reference of the scale not given here; inhibition, % (no concentration beside the values); 300,000 compounds, 0.17% hits;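 active = replicate mean above 50%; inconclusive = above 50% but judged a plate artefact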;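 note: 50 nL library stock added to about 25 µL; numbers are from one replicate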
# Mtb hypoxia rep: reduces hypoxia-regulated biosensor signal in M. tuberculosis; AID 1159583; fluorescence inhibition, % (no concentration beside the values); M. tuberculosis hypoxia-regulated fluorescent reporter, fluorescence; 300,000 compounds, 0.1% hits;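 active = 35 to 45% if threefold the growth effect, above 45% if 1.5-fold the growth effect; inactive = the rest, general growth blockers included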;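 note: wells of about 50 µL received 100 nL stock; 0% = vehicle wells and 100% = reference inhibitor wells; whole bacteria with a GFP reporter of the hypoxia response; strong numbers were not always called active; many hits fall short of the cut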
# Autofluor counter: flagged as autofluorescent in microsphere protease counterscreen | 360,000 compounds, 3.1% hits | fluorescence intensity (concentration not given with the values) | compound autofluorescence counterscreen, microsphere flow cytometry; stronger effect = higher value;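 active = at least 3 SD above the mean of all compounds, about 16000 in these data; inconclusive = too few beads counted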;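 note: 100 nL of 1 mM stock went into each well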
# Sa RN4220 lethal: kills Staphylococcus aureus RN4220. AID 1259311. inhibition, % (concentration not given with the values). 330,000 compounds, 0.33% hits. S. aureus RN4220 growth, OD600, 16 h;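 active = z-score of -3 or lower and OD600 up to 0.18 on both plates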;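 note: plate controls were untreated cells for no effect and reference antibiotic for full effect; stock transfer was 100 nL into about 80 µL; one replicate is shown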
# ugtP null kill: growth inhibition of S. aureus ugtP deletion strain. S. aureus RN4220 ugtP deletion, OD600 growth, 16 h; some inactives read as strong as hits. growth inhibition, % (concentration not given with the values). 330,000 compounds, 0.54% hits. AID 1259309;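 active = z-score under -3 and OD600 up to 0.15 on both plates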;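 note: plate controls were untreated wells for no effect and antibiotic for full effect; wells of about 80 µL received 100 nL stock; the first replicate is given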
# PrP UTR inh: suppresses PrP 5' UTR mRNA reporter expression | cell-based PrP 5' UTR mRNA reporter, plate reader | inhibition, % (no concentration beside the values) | 340,000 compounds, 0.35% hits | AID 488862;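 active = every replicate at 50% or more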;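 note: 0 = median of the neutral control wells; tested in H4 reporter cells; numbers are from one replicate; inactives centre near -14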
# Mtb hypoxia rep growth: recorded beside Mtb hypoxia rep, whose call it bears; growth inhibition, %; measured here: M. tuberculosis growth (absorbance);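 0% = vehicle and 100% = reference antibiotic; read after six days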
# An asterisk follows results filed as active; ? = inconclusive; nt = not tested or not shown.
SMILES,BJeLR lethal,Mtb hypoxia rep,Mtb hypoxia rep growth,Autofluor counter,Sa RN4220 lethal,ugtP null kill,PrP UTR inh
COC(=O)c1c(NC(=O)C(=O)NCC2CCCO2)sc2c1CC(C)(C)OC2 (centres undefined),3,-2,-7,nt,3.8,-2,-13
O=C(NC(=S)Nc1cccc([N+](=O)[O-])c1)c1ccccc1,6,12,11,5384,4.1,-2,-105
CC(C)C(=O)NC(NC(=O)C(C)C)c1ccc([N+](=O)[O-])cc1,4,-5,-2,7241,2.3,10,-8
O=C(CNCCCO)Nc1cc(C(F)(F)F)cc(NC(=O)CNCCCO)c1Cl,7,14,10,2513,2.7,4,-24
COc1ccc(Cl)cc1NC(=O)C(C)Sc1nncn1C (centres undefined),-6,nt,nt,4486,1.2,3,-3
CC1(C)CC(=O)C=C(c2ccc(F)cc2OCc2ccccc2)C1,nt,4,5,3554,-2.0,11,-2
O=C(COc1ccc(F)cc1)Nc1cc(Cl)ccc1-n1cncn1,-7,2,-13,?,5.4,3,-1
CC(=O)NC1(c2cccc(F)c2)CCN(C(=O)Nc2ccc(C#N)cc2)CC1,-4,nt,nt,4642,1.1,2,-10
Cc1cc(C(=O)Nc2cc(C(F)(F)F)ccc2N2CCOCC2)no1,14,-5,-7,5797,0.9,-1,8
COC(=O)c1ccc(NCC(=O)c2ccccc2)cc1,9,5,0,3376,9.2,-2,-56
CCCCn1c(N)c(N(CCOC)C(=O)c2cccc(S(=O)(=O)N(CC)c3ccccc3)c2)c(=O)[nH]c1=O,7,6,-3,?,2.3,2,-4
COCCN1C(=O)c2oc3cc(C)c(C)cc3c(=O)c2C1c1ccc(O)cc1 (centres undefined),-6,3,3,9861,3.4,-6,-11
Cc1sc2nc(CSCC(=O)NC3CCCCC3)[nH]c(=O)c2c1C,-4,5,-1,nt,1.7,2,-13
COc1ccc(Cl)cc1NC(=O)CSc1nc2sccc2c(=O)[nH]1,-3,-1,6,2738,5.3,3,-22
Brc1cccc(CNCCc2ccc3c(c2)OCO3)c1,2,7,1,3869,3.5,-1,6
CS(=O)(=O)N1CCc2cc(-c3csc(NCC4CCCO4)n3)ccc21 (centres undefined),0,-1,3,6108,4.7,-11,-31
Cc1ccc(NC(=O)NC2CCCCC2)cc1Cl,nt,6,15,21618*,4.3,-5,-73
COc1ccc(OC)c(NC(=O)C2CCN(S(=O)(=O)c3ccc4c(c3)OCCO4)CC2)c1,2,11,4,5582,1.7,3,-12
O=C(c1ccco1)N1CCN(Cc2cc(=O)c(OCc3ccc([N+](=O)[O-])cc3)co2)CC1,5,5,0,5162,4.5,4,-12
COc1ccc(C2C3C(=O)N(C(C)(C)C)C(=O)C3[C@]3(Cc4ccccc4)C(=O)N(c4cccc(Br)c4)C(=O)N23)cc1 (some centres undefined),nt,3,11,nt,5.7,-26,nt
CC(COc1cccc2ccccc12)CN1CCN(C)CC1 (centres undefined),8,11,20,24009*,-1.6,2,-9
CCOC(=O)/C(C#N)=C1/C=CN(C)C=N1,-4,2,7,5696,5.0,-5,-23
Cc1ccc(NC(=O)CCNS(=O)(=O)c2ccc3c(c2)c(=O)n(C)c(=O)n3C)cc1C,-7,-1,5,4830,4.0,4,-18
O=C(NCc1ccccc1Cl)C1CCCN1C(=O)NC1CCCCC1 (centres undefined),5,-6,5,3770,3.1,7,-9
CCOc1cnc(-c2ccc(Cl)cc2)o1,5,nt,nt,2230,14,0,-52

# Sorted by SMILES length (highest first): part of the list above
SMILES,BJeLR lethal,Mtb hypoxia rep,Mtb hypoxia rep growth,Autofluor counter,Sa RN4220 lethal,ugtP null kill,PrP UTR inh
CCCCn1c(N)c(N(CCOC)C(=O)c2cccc(S(=O)(=O)N(CC)c3ccccc3)c2)c(=O)[nH]c1=O,7,6,-3,?,2.3,2,-4
O=C(c1ccco1)N1CCN(Cc2cc(=O)c(OCc3ccc([N+](=O)[O-])cc3)co2)CC1,5,5,0,5162,4.5,4,-12
COC(=O)c1c(NC(=O)C(=O)NCC2CCCO2)sc2c1CC(C)(C)OC2 (centres undefined),3,-2,-7,nt,3.8,-2,-13
COC(=O)c1ccc(NCC(=O)c2ccccc2)cc1,9,5,0,3376,9.2,-2,-56

# Following part
SMILES,BJeLR lethal,Mtb hypoxia rep,Mtb hypoxia rep growth,Autofluor counter,Sa RN4220 lethal,ugtP null kill,PrP UTR inh
O=C(CCNS(=O)(=O)c1cccc2nsnc12)NCc1ccccc1,-3,0,9,4023,1.3,1,-5
COC(=O)CSc1nc(N)c(C#N)c(-c2ccco2)c1C#N,-1,nt,nt,4188,-1.0,-6,-29
O=[N+]([O-])c1ccc(OCCO)c(P(=O)(c2ccccc2)c2ccccc2)c1,0,-5,-2,3318,4.6,2,9
COc1ccc(N2C(=O)CC(N(Cc3ccco3)C(=O)CCC(=O)O)C2=O)cc1 (centres undefined),4,6,2,4476,4.4,10,-1
COc1cccc(OC)c1C(=O)Nc1ccc([N+](=O)[O-])cn1,-5,5,3,2055,5.1,9,-15
O=C(N/C(=C\c1cn(-c2ccccc2)nc1-c1ccc(Cl)cc1)C(=O)N1CCOCC1)c1ccccc1,-8,1,1,nt,0.5,10,nt
N#Cc1ccccc1Sc1ccccc1C(=O)Nc1ccc(Br)cc1,7,12,1,?,-4.5,-21,-18
Cc1ccccc1CSc1ncc(C#N)c(N)n1,-1,-10,-8,11101,-3.8,7,nt
CCN1C(=O)C(=C/C=C/c2ccco2)C(=O)N(CC)C1=S,nt,10,18,2680,3.7,14,-14
COc1cc(NS(=O)(=O)c2cc3c(cc2C)NC(=O)CO3)cc(OC)c1,5,2,6,6216,15,2,-34
Cc1ccc([N+](=O)[O-])cc1NC(=S)NC(=O)c1cccnc1,-13,9,17,2090,3.8,5,-3
c1ccc2cc(-c3csnn3)ccc2c1,-2,nt,nt,3676,12,10,-27
CC(=O)Nc1ccc(NC(=O)CN(C)S(=O)(=O)c2ccc3ccccc3c2)cc1,-5,4,-2,6040,2.4,2,-23
Cc1sc2ncnc(NS(=O)(=O)c3ccc(Cl)cc3)c2c1C,nt,13,0,4008,24,-19,-2
COc1ccccc1/C=N/Nc1nc(C)cc(C)n1,-4,nt,nt,3632,nt,nt,-14
Cc1cc(NC(=O)CSc2nnc(C3CC3)n2N)no1,-1,-1,4,11643,1.3,2,-13
O=C(NN=Cc1ccccc1C(=O)O)c1cccc(S(=O)(=O)Nc2cc(Cl)ccc2Cl)c1,nt,-2,0,nt,24,12,nt
CCN(CC)CCn1c(=N)n(CC(O)COc2cccc(C)c2)c2ccccc21 (centres undefined),7,21,19,4514,4.5,1,-4
COC(=O)c1ccc2c(c1)sc(=NC(=O)CCS(=O)(=O)c1ccccc1)n2C,-3,5,1,nt,8.8,7,-5
Cc1cc(C)n(CC(=O)Nc2ccc([N+](=O)[O-])cc2)n1,2,-5,5,5295,0.2,-7,-10
O=C(CCCCCN1C(=O)c2cccc([N+](=O)[O-])c2C1=O)Nc1ccccc1F,0,13,16,3354,3.6,8,-17
CCOc1ccc(CC(=O)N/N=C/c2cccnc2)cc1OCC,6,nt,nt,6098,nt,nt,-1
CC1CN(C(=O)CS(=O)(=O)Cc2ccccc2)CC(C)O1 (centres undefined),-11,8,1,3072,-0.9,12,-1
COc1ccc(C(=O)OC(C)C(=O)NC(C)CCc2ccccc2)cc1OC (centres undefined),-4,8,-2,3867,3.3,0,-15
COc1ccc(-n2c(=S)[nH]c3ccccc32)cc1,-5,24,20,3428,5.3,-8,-9

# Copied from the list.
# Value of COC(=O)c1c(NC(=O)C(=O)NCC2CCCO2)sc2c1CC(C)(C)OC2 (centres undefined) in Sa RN4220 lethal: 3.8
# Value of Cc1sc2nc(CSCC(=O)NC3CCCCC3)[nH]c(=O)c2c1C in Sa RN4220 lethal: 1.7
# Value of CCN(CC)CCn1c(=N)n(CC(O)COc2cccc(C)c2)c2ccccc21 (centres undefined) in PrP UTR inh: -4

# The results go on.
SMILES,BJeLR lethal,Mtb hypoxia rep,Mtb hypoxia rep growth,Autofluor counter,Sa RN4220 lethal,ugtP null kill,PrP UTR inh
CCC(=O)Nc1c(-c2ccccc2)c(=O)c2ccccc2n1C,-6,1,-3,4566,3.0,-3,-13
Cc1ccc(-c2nc(CS(=O)(=O)CC(=O)NC3CCCCCC3)c(C)o2)cc1,-17,-2,-5,4777,4.0,2,-4
O=C(CSc1nc(=O)n2ccccc2n1)N1CCC(Cc2ccccc2)CC1,10,3,7,5254,11,0,-4
N#C/C(C(=O)N1CCOCC1)=C1/SC(Cc2ccccc2)C(=O)N1c1ccccc1 (centres undefined),2,nt,nt,3819,6.5,7,-15
CC(C)c1nnc(NC(=O)C2CCCN2S(=O)(=O)c2ccc(Cl)cc2)s1 (centres undefined),-3,9,2,10138,0.8,7,-11
O=C(CCc1ccccc1Cl)Nc1cc2c(cc1C(=O)O)OCCCO2,nt,5,-4,3819,0.6,1,-4
CCOc1ccc(NC(=S)NNC(=O)c2cc(Br)ccc2Cl)cc1,-2,15,9,4103,5.3,8,-9
COC(=O)c1ccccc1NS(=O)(=O)c1ccc(O)c(C(=O)O)c1,5,0,2,10696,4.0,5,-17
CCc1ccccc1OCC(=O)NNCC(=O)Nc1cccc(C#N)c1,nt,8,-3,4116,0.9,-5,-19
Cc1nc2c(c3c1[nH]c1ccccc13)C(=O)CC(C)(C)C2,5,-1,1,3346,1.3,-27,-25
CCC(C)N(C(=O)CSc1ccc(NC(C)=O)cc1)C1CCS(=O)(=O)C1 (centres undefined),1,-2,6,3319,2.2,16,-14
COC(=O)c1cccc(S(=O)(=O)N(Cc2ccco2)Cc2cc3cc(OC)ccc3[nH]c2=O)c1,5,2,10,6287,4.0,1,-10
CC(C)(C)c1cc(/C=N/NC(=O)C[n+]2ccccc2)cc(C(C)(C)C)c1O,-12,nt,nt,3313,nt,nt,-12
CCN(CCC(=O)O)c1ccccc1,2,-24,-9,3322,3.7,-5,-25
COc1ccc(CCNC(=O)c2noc(C)c2[N+](=O)[O-])cc1OC,3,11,10,3824,2.2,21,-5
O=C(CCCl)Nc1nnc(SCC(=O)NC2CCCC2)s1,-1,11,10,5655,4.5,11,-2
CCCCCCCCC[n+]1cccc2c3ccccc3ccc21,10,7,10,3318,100*,100*,1
CC(=O)c1cc(O)c2ccccc2c1O,4,4,8,3731,7.1,7,-13
O=S1(=O)CCC(NC(=S)NC2CCS(=O)(=O)C2)C1 (centres undefined),-11,-4,5,9210,-2.1,6,-19
CSc1ccc(CN(C)C(=O)CCNS(=O)(=O)c2ccc(C)c(C)c2)cc1,0,-1,0,?,-2.9,6,-5
O=C(c1ccc2c(=O)n3c(nc2c1)CCCCC3)N1CCN(c2cccc(Cl)c2)CC1,-2,2,15,5974,-15,-9,4
COc1cccc(C2CC=C(C(=O)O)CN2S(=O)(=O)c2ccc(C)cc2)c1 (centres undefined),nt,9,8,nt,7.6,4,nt
CCCn1c(SCC(=O)NC(C)C23CC4CC(CC(C4)C2)C3)n[nH]c1=O (centres undefined),1,nt,nt,5774,-1.0,-6,-21
O=C(Nc1ccccc1C(=O)NCC1CCCO1)c1ccc(Cl)cc1 (centres undefined),-4,13,13,4902,1.3,1,-18
Cc1nnc(N2C(=O)C(O)=C(C(=O)c3ccco3)C2c2ccc(C(C)C)cc2)s1 (centres undefined),-8,5,9,2618,12,5,-7
SMILES,BJeLR lethal,Mtb hypoxia rep,Mtb hypoxia rep growth,Autofluor counter,Sa RN4220 lethal,ugtP null kill,PrP UTR inh
Cc1nn(C)cc1C(C(=O)NC1CCCCC1)N(CCc1ccccc1)C(=O)c1cnccn1 (centres undefined),11,1,12,4157,1.5,1,-2
NS(=O)(=O)c1ccc(NC(=S)N2CCC(Cc3ccccc3)CC2)cc1,4,9,1,3320,4.9,13,-17
O=C(CCC1CCCCC1)Nc1ccccc1C(=O)N1CCOCC1,6,13,1,2494,3.0,8,-27
CCOC(=O)N1CCC(NC(=O)c2ccc(Cl)cc2)CC1,-5,15,2,?,1.2,1,-7
COC(=O)C1CCN(C(=O)COC(=O)CSc2ccc(C(N)=O)cc2[N+](=O)[O-])CC1,3,7,2,5526,1.6,5,3
COc1cc2[nH]c3c(N4CCC(C(N)=O)CC4)ncnc3c2cc1OC,9,5,6,nt,-17,-6,nt
CC(C)CNC(=O)CSc1ccc(S(=O)(=O)N2CCN(C)CC2)cn1,nt,16,6,3774,3.9,3,-30
Cc1ccc(N2C(=O)CC(N3CCN(c4ccc(F)cc4)CC3)C2=O)c(C)c1 (centres undefined),-5,nt,nt,3593,nt,nt,-15
O=C(COc1cccc(Br)c1)N/N=C1\CCSC1,2,nt,nt,4303,nt,nt,-7
Cc1oc2c(c1C(=O)Nc1cccc3ccccc13)CCCC2,-7,nt,nt,2139,0.2,17,3
